Screening results: PubChem, several laboratories
Bead autofluor = compound fluorescence in toxin protease inhibitor counterscreen; compound autofluorescence counterscreen, microsphere flow cytometry; active compounds read high; fluorescence intensity (no concentration beside the values); 360,000 tested, 3.1% active;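 active means at least 3 SD above the mean of all compounds, about 16000 in these data; inconclusive means too few beads counted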;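 further: 100 nL of 1 mM stock went into each well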
PrP 5UTR inh = inhibition of PrP 5' UTR reporter expression. cell-based PrP 5' UTR mRNA reporter, plate reader. inhibition, % (test concentration not listed). 340,000 tested, 0.35% active;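 active means every replicate at 50% or more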;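 further: 0 = median of the neutral control wells; tested in H4 reporter cells; numbers are from one replicate; inactives centre near -14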
RN4220 kill = growth inhibition of S. aureus RN4220, primary screen, OD600; 16 h; inhibition, % (no concentration beside the values); 330,000 tested, 0.33% active;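 active means z-score of -3 or lower and OD600 up to 0.18 on both plates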;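 further: plate controls were untreated cells for no effect and reference antibiotic for full effect; stock transfer was 100 nL into about 80 µL; one replicate is shown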
BJeLR viability = MLPCN primary cell-based screen for lethality selective to Ras in HRASV12 cells; BJeLR (HRASV12) viability, CellTiter-Glo ATP luminescence, 48 h; reference of the scale not given here; inhibition, % (concentration not given with the values); 300,000 tested, 0.17% active; AID 1554, 2009;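 active means replicate mean above 50%; inconclusive means above 50% but judged a plate artefact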;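 further: 50 nL library stock added to about 25 µL; numbers are from one replicate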
Mtb hypoxia rep = PubChem AID 1159583; 300,000 tested, 0.1% active; fluorescence inhibition, % (concentration not given with the values); M. tuberculosis hypoxia-regulated fluorescent reporter, fluorescence;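 active means 35 to 45% if threefold the growth effect, above 45% if 1.5-fold the growth effect; inactive means the rest, general growth blockers included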;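 further: wells of about 50 µL received 100 nL stock; 0% = vehicle wells and 100% = reference inhibitor wells; whole bacteria with a GFP reporter of the hypoxia response; strong numbers were not always called active; many hits fall short of the cut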
Sa ugtP lethal = growth inhibition of ugtP-null S. aureus, primary screen, RN4220 ugtP deletion, OD600; 16 h; some inactives read as strong as hits; growth inhibition, % (test concentration not listed); 330,000 tested, 0.54% active; AID 1259309, 2017;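 active means z-score under -3 and OD600 up to 0.15 on both plates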;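 further: plate controls were untreated wells for no effect and antibiotic for full effect; wells of about 80 µL received 100 nL stock; the first replicate is given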
Mtb hypoxia rep growth = also measured in Mtb hypoxia rep; calls as there; growth inhibition, %; measured here: M. tuberculosis growth (absorbance);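 0% = vehicle and 100% = reference antibiotic; read after six days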
The depositor's hits bear a star; ? = inconclusive; / = no result given; & = joins results of further samples.

SMILES	Bead autofluor	PrP 5UTR inh	RN4220 kill	BJeLR viability	Mtb hypoxia rep	Mtb hypoxia rep growth	Sa ugtP lethal
Cc1cccc(NC(=O)C2(c3cccs3)CCOCC2)c1	9106	-24	5.2	-9	8	-4	0
Cc1cc(-c2ccccc2)n2nc(C)c(C#N)c2n1	4079	-8	1.7	-3	6	8	2
Cc1sc2ncnc(N3CCC(C(=O)NNC(=O)COc4ccccc4F)CC3)c2c1C	5689	-5	1.6	-9	6	9	0
C#Cc1ccc([C@H]2C=C(C(=O)NCc3nc4ccccc4[nH]3)O[C@@H](OCC)[C@@H]2CCCO)cc1	3371	-5	/	-10	/	/	/
O=C(c1ccc(Cl)cc1Cl)N1CCN(c2ccccn2)CC1	3693	-25	4.5	-7	16	15	13
CC(NCc1ccc2c(c1)OCO2)C(=O)NC1CCCc2ccccc21 (configuration not stated)	2700	-19	-0.6	0	-2	6	-12
O=C1NC(Cc2ccccc2)COC(=O)C(Cc2ccc(F)cc2)CCC=CCC1CC(=O)N(CCO)Cc1ccccc1 (configuration not stated)	/	/	-5.1&-5.6&-6.4&-6.7&-7.5&-3.0&1.0	/	6&10&-13&-6&4&-1&7	3&18&1&4&8&5&11	10&11&0&2&-2&-6&6
CCOC(=O)CN1C(=O)c2ccccc2C1=O	4576	-11	5.4	-17	6	3	7
O=C(O)CN(c1ccccn1)S(=O)(=O)c1ccccc1	4909	-13	-0.4	-1	/	/	3
O=C1CCN(Cc2ccccc2)CCN1C(CSc1ccccc1)c1ccccc1 (configuration not stated)	/	/	6.6	/	4	7	-4
COc1ccccc1NC(=O)COc1ccccc1C(=O)c1cnn(-c2ccccc2)c1	2528	-41	3.6	-8	4	4	-10
Cc1ccc(S(=O)(=O)N(C)Cc2ccc(C(=O)NN=C3CCCC(=O)C3)cc2)cc1	/	/	2.3	/	6	5	-6
COc1ccc(NC(=O)N2CCCCC2)cc1	11298	-41	-1.0	1	-4	0	-2
COc1cc(/C=C/C(=O)OCc2c(C)noc2C)ccc1OC(F)F	3666	-5	4.0	-5	7	5	13
Cc1ccc(-c2cc(C(=O)N3CCC4(CC3)OCCO4)no2)cc1	3281	-31	10	-6	13	-1	6
C/C(=C\c1ccc(N)cc1)c1nc2ccccc2[nH]1	3368	-74	5.4	4	8	2	3
CN(c1ccccc1C(=O)Nc1ccc2ccccc2c1)S(C)(=O)=O	/	/	6.5	12	8	8	-3
CCCC(OC(=O)CC1Sc2ccccc2NC1=O)C(=O)NCc1ccco1 (configuration not stated)	6020	-13	5.9	-2	5	11	0
CCC(C)c1ccc(NC(=O)COC(=O)C2CCCC2)cc1 (configuration not stated)	3863	-13	5.6	/	10	8	2
COc1ccccc1N1CCN(N=Cc2cc(OC)c(O)c(OC)c2)CC1	/	/	0.5	/	0	3	4
CCC(C)[C@H](NC(=O)NCc1ccc(Cl)cc1)C(=O)OC (some centres not stated)	2564	-2	8.8	-1	1	12	-7
CC(=O)Nc1ccc(Nc2cc(C)nc3c(-c4ccccc4)c(C)nn23)cc1	2305	-6	4.7	3	4	4	-3
COc1ccc(C=NNC(=O)c2c(C)nnn2-c2nonc2N)cc1OC	/	/	-0.6	/	10	1	5
COc1ccc(C2=Nn3c(nnc3C(F)(F)F)SC2)cc1	3546	-18	2.0	13	17	0	2
CC1(C)CC(=O)c2cc(OCC(=O)N3CCN(Cc4ccccc4)CC3)ccc2O1	4590	1	3.8	6	2	3	9

More structures:
SMILES	Bead autofluor	PrP 5UTR inh	RN4220 kill	BJeLR viability	Mtb hypoxia rep	Mtb hypoxia rep growth	Sa ugtP lethal
O=C(NC(NC(=S)Nc1c(Cl)cc(Cl)cc1Cl)C(Cl)(Cl)Cl)OCc1ccccc1 (configuration not stated)	9098	-36	/	6	/	/	/
Cn1nnnc1SCc1cccc2ccccc12	4173	-24	3.3	15	13	9	0
C#CCNC(=O)C1=C[C@@H](c2cn(C(C)=O)c3ccccc23)C[C@@H](OCc2ccc(CO)cc2)O1	3919	6	/	-1	/	/	/
O=c1[nH]cnc2onc(-c3ccc(F)cc3)c12	4152	-19	8.5	-9	16	8	11
O=C(O)c1cc(NN=C2CCN(Cc3ccccc3)CC2)ccc1Cl	6123	-23	3.8	-3	17	7	1
Cn1c(/C=N/NC(=O)c2ccccc2)nc2ccccc21	11546	-23	/	-13	/	/	/
NC(=O)c1c(NC(=S)Nc2ccccc2)sc2c1CCCC2	3780	-18	8.1	-5	1	-2	13
CN1C[C@@H]2C(c3ccccc3)C3(c4ccc(C#N)cc4)CC2(C3)[C@H]1c1ccccc1 (some centres not stated)	3152	-7	/	11	/	/	/
Cc1ccc2[nH]c(C(=O)N/N=C/c3ccccc3O)c(C)c2c1	4004	15	/	22	/	/	/
N#C/C(=C\c1ccc(Cl)cc1)c1nc2ccccc2o1	2454	-20	/	4	/	/	/
CC(C(=O)Nc1ccc2c(c1)OCO2)N(c1ccc(Cl)cc1)S(C)(=O)=O (configuration not stated)	3368	-5	3.4	9	-11	-5	-5
CCN(CC)N=Nc1cccc(NC(C)=O)c1	2594	-11	3.2	2	4	6	-4
O=C(Cc1c(F)cccc1Cl)Nc1ccccn1	3570	-24	4.5	10	6	7	6
S=c1[nH]nc(-c2ccco2)n1Cc1ccccc1	5140	-19	1.4	/	/	/	0
COc1ccccc1N1CCN(C(=O)CCc2ccc(S(=O)(=O)NC(C)C)cc2)CC1	3644	-23	3.4	-1	1	2	-1
COc1cccc(C(C(=O)NC2CCCCC2)N(C(=O)c2ccco2)c2ccc(-n3cnnn3)c(C)c2)c1 (configuration not stated)	4073	-19	0.3	-6	/	/	-1
N#CC1=C(N)C(C#N)(C#N)[C@H](c2ccncc2)[C@H]2CN(C(=O)OCc3ccccc3)CC=C12	10720	-5	1.7	4	-1	5	-5
CC(C)OC(=O)c1ccc(OC(=O)c2cccnc2)cc1	4062	-18	3.0	5	-4	8	1
Cn1ncc(Cl)c1C(=O)NN=Cc1cccc(OC2CSC2)c1	/	/	1.6	/	5	10	7
CC(C)(C)C1CCC(=NNC(=S)NCc2ccccc2)CC1 (configuration not stated)	3182	-29	0.1	-10	-11	-1	2
COc1cc(C(C)=O)ccc1COc1ccc(C(=O)OCC(N)=O)cc1OC	7291	-20	5.6	-3	0	0	10
CC(=O)c1cccc(NC(=S)NC(=O)Cc2ccc(Cl)cc2)c1	3659	-24	-2.2	-7	13	3	2
CCc1c(C)nc2cc(-c3cc(OC)cc(OC)c3)nn2c1N1CCCC1	10791	-11	-8.1	-3	10	10	-19
O=c1cc(-c2ccccc2)nc(SCc2ccccc2F)[nH]1	4739	-14	10	-4	16	13	1
O=C1NN(c2ccc(F)c(Cl)c2)C(=O)/C1=C\c1cccc(OC(=O)c2cccs2)c1	4149	-10	0.6	9	/	/	-1

Profiles, looked up by structure. Values in the order: Bead autofluor | PrP 5UTR inh | RN4220 kill | BJeLR viability | Mtb hypoxia rep | Mtb hypoxia rep growth | Sa ugtP lethal
Record of `S=c1[nH]nc(-c2ccco2)n1Cc1ccccc1` : 5140 | -19 | 1.4 | / | / | / | 0
Record of `O=C(NC(NC(=S)Nc1c(Cl)cc(Cl)cc1Cl)C(Cl)(Cl)Cl)OCc1ccccc1` (configuration not stated) : 9098 | -36 | / | 6 | / | / | /
Record of `CC(C(=O)Nc1ccc2c(c1)OCO2)N(c1ccc(Cl)cc1)S(C)(=O)=O` (configuration not stated) : 3368 | -5 | 3.4 | 9 | -11 | -5 | -5
Record of `O=C1NN(c2ccc(F)c(Cl)c2)C(=O)/C1=C\c1cccc(OC(=O)c2cccs2)c1` : 4149 | -10 | 0.6 | 9 | / | / | -1
Record of `COc1ccccc1N1CCN(C(=O)CCc2ccc(S(=O)(=O)NC(C)C)cc2)CC1` : 3644 | -23 | 3.4 | -1 | 1 | 2 | -1

Filtered by structure, the compounds so far with a furan ring, fused or not
SMILES	Bead autofluor	PrP 5UTR inh	RN4220 kill	BJeLR viability	Mtb hypoxia rep	Mtb hypoxia rep growth	Sa ugtP lethal
CCCC(OC(=O)CC1Sc2ccccc2NC1=O)C(=O)NCc1ccco1 (configuration not stated)	6020	-13	5.9	-2	5	11	0
S=c1[nH]nc(-c2ccco2)n1Cc1ccccc1	5140	-19	1.4	/	/	/	0
COc1cccc(C(C(=O)NC2CCCCC2)N(C(=O)c2ccco2)c2ccc(-n3cnnn3)c(C)c2)c1 (configuration not stated)	4073	-19	0.3	-6	/	/	-1

Other records.
SMILES	Bead autofluor	PrP 5UTR inh	RN4220 kill	BJeLR viability	Mtb hypoxia rep	Mtb hypoxia rep growth	Sa ugtP lethal
CCOC(=O)COc1ccc(S(=O)(=O)Nc2ccc(C)cc2)cc1	20911*	-32	4.1	-3	6	10	3
COc1ccc(NC(=O)C(=O)NN=Cc2cccnc2)c(OC)c1	/	/	2.8	/	16	9	2
COC1(NC(=O)c2ccccc2)C(C)=CC(=O)C=C1C	4495	-19	1.0	0	-5	0	0
CCCOC(=O)c1cc(-c2ccc(C=O)o2)ccc1Cl	2278	-24	7.2	3	8	3	-3
CC(=O)Nc1ccc(NS(=O)(=O)c2ccc3c(c2)NC(=O)CC(=O)N3)cc1	4821	-114	5.6	-3	12	2	8
Fc1ccc(C(OCCN2CCN(CCCc3ccccc3)CC2)c2ccc(F)cc2)cc1	6148	0	0.0	8	2	10	3
Cc1cc(-n2c(C)cc(C(=O)CSc3nc(N)cc(=O)[nH]3)c2C)no1	3422	-15	2.7	-2	6	10	0
CN1CCN(S(=O)(=O)c2cccc(C(=O)Oc3cccc(C#N)c3)c2)CC1	?	-7	1.3	-6	7	10	5
COC1=NS(=O)(=O)c2ccccc21	2274	-24	-3.1	0	-5	-2	4
[O-]/[N+](=C\c1ccncc1)c1ccc(Br)cc1	2324	-67	-0.6	-3	9	5	7
CN=c1nc(-c2ccccc2)n(-c2ccccc2)s1	4486	-1	7.2	/	8	4	-3
N#Cc1c(NC(=O)c2ccc(Cn3cc(Br)cn3)o2)sc2c1CCCCC2	3219	-68	-12	3	3	5	-27
COc1cc(Nc2cc(C)nc3ncnn23)cc(OC)c1OC	5533	6	1.5	-8	/	/	-7
CN(C)CCN(C(=O)c1ccc2c(c1)OCCO2)c1nc2ccc(Cl)cc2s1	4237	-16	-2.0	4	18	2	-2
COC(=O)/C(=C/c1ccc(F)cc1)NC(C)=O	7517	4	3.3	4	10	4	13
Cc1cc(C)n2nc(C(=O)N(C)C(c3ccccc3)c3ccccc3)nc2n1	4136	-13	7.6	1	7	2	4
COc1cccc(/C=N/Nc2nc3ccccc3[nH]2)c1O	3950	-12	/	11	/	/	/
COc1cccc(CNS(=O)(=O)c2c(C(=O)N3CCCCCC3)c(C)n(C)c2C)c1	3961	-13	3.1	2	9	9	-1
O=C(CNC(=O)c1cc2c(n(-c3ccccc3)c1=O)CCCC2=O)c1ccccc1	4398	-22	-1.4	-5	-2	-2	-4
NC(=O)c1cc(S(=O)(=O)N2CCOCC2)ccc1N1CCCC1	4265	-16	2.9	0	6	-1	13

Results in BJeLR viability, Bead autofluor and Sa ugtP lethal, for three of the compounds above:
molecule,BJeLR viability,Bead autofluor,Sa ugtP lethal
O=C(Cc1c(F)cccc1Cl)Nc1ccccn1,10,3570,6
S=c1[nH]nc(-c2ccco2)n1Cc1ccccc1,/,5140,0
COc1ccccc1N1CCN(C(=O)CCc2ccc(S(=O)(=O)NC(C)C)cc2)CC1,-1,3644,-1

Pulled by compound from the entries so far:
SMILES	Bead autofluor	PrP 5UTR inh	RN4220 kill	BJeLR viability	Mtb hypoxia rep	Mtb hypoxia rep growth	Sa ugtP lethal
O=C(CNC(=O)c1cc2c(n(-c3ccccc3)c1=O)CCCC2=O)c1ccccc1	4398	-22	-1.4	-5	-2	-2	-4
CCCOC(=O)c1cc(-c2ccc(C=O)o2)ccc1Cl	2278	-24	7.2	3	8	3	-3
COC1=NS(=O)(=O)c2ccccc21	2274	-24	-3.1	0	-5	-2	4

Outcome played no part in choosing rows. Share with any hit: about 4.1%.
